StopGo RLuc: Primary qHTS Assay for Foot and Mouth Disease Virus Antivirals against NCGC Sytravon and CBC Compound Libraries: Renilla Luciferase Signal; Potency, µM (doses to about 57.5 µM), without a hit: top-dose signal change, negative = less light; actives 0.32% (n = 120,000); HEK cells with a luciferase reporter of 2A StopGo recoding; AID 1745857, 2022; active means well fitted falling curve with a large enough effect; inconclusive means small, poorly fitted or top-dose-only effect; inactive means no such curve, though single readings can be large or run the other way; note: nearly all actives have a fitted effect of over 55% in size; overnight with compound
2A firefly: Primary qHTS Assay for Foot and Mouth Disease Virus Antivirals against NCGC Sytravon and CBC Compound Libraries: Firefly Luciferase Signal. HEK cells with a luciferase reporter of 2A StopGo recoding. Potency, µM (top dose mostly 57.5 µM), for inactives: at the highest dose signal change, negative = less light. actives 0.23% (n = 120,000). AID 1745856, 2022; active = well fitted falling curve with a large enough effect; inconclusive = small, poorly fitted or top-dose-only effect; inactive = no such curve, though single readings can be large or run the other way; note: nearly all actives have a fitted effect of over 60% in size; overnight with compound
* = called active by the depositor; ? = inconclusive; [ ] = remark or other dose. % is set by controls: 0 for no effect and ±100 for the full control effect; potency is the fitted concentration of half-maximal effect.

Values run as follows: 2A firefly | StopGo RLuc
1: CCOc1ccc(NC(C)(CC)c2nnnn2-c2c(C)cccc2C)cc1 (stereo not given)
→ 1% | 74%[activator]
2: COc1ccc(COC(=O)C2CCN(S(=O)(=O)c3c(Cl)cccc3Cl)CC2)cc1F
→ -3% | -13%
3: Cc1ccc(NC(=O)C2CC2)cc1NC(=O)C1(C)CC1(Cl)Cl (stereo not given)
→ 13% | 11%
4: Cc1ccc(C)c(S(=O)(=O)NCc2ccccc2S(=O)(=O)N2CCCCC2)c1
→ ? | 2%
5: CCN(CCCNC(=O)Cn1nc(Cc2ccncc2)c2ccccc2c1=O)c1cccc(C)c1
→ -17% | -20%
6: O=C(COc1c(F)c(F)c(F)c(F)c1F)N1CCC(c2nc3ccccc3o2)CC1
→ 17% | 12%
7: O=C(c1cc(O)c(O)c(O)c1)c1ccc(O)c(O)c1O
→ -4%[11.5 µM] | -8%
8: Cc1cc(=O)oc2cc(OCCC(C)C)ccc12
→ 304%[activator] | 34%
9: CC(C)CC(CNC(=O)c1nn(-c2ccccc2)c(=O)c2ccccc12)N1CCOCC1 (stereo not given)
→ -2% | -7%
10: Cc1cc(=O)c(C(=O)Nc2nnc(C(C)C)s2)nn1-c1ccccc1F
→ 22% | 7%

Random excerpt: seven compounds from above
Values run as follows: 2A firefly | StopGo RLuc
7: O=C(c1cc(O)c(O)c(O)c1)c1ccc(O)c(O)c1O
→ -4%[11.5 µM] | -8%
4: Cc1ccc(C)c(S(=O)(=O)NCc2ccccc2S(=O)(=O)N2CCCCC2)c1
→ ? | 2%
6: O=C(COc1c(F)c(F)c(F)c(F)c1F)N1CCC(c2nc3ccccc3o2)CC1
→ 17% | 12%
10: Cc1cc(=O)c(C(=O)Nc2nnc(C(C)C)s2)nn1-c1ccccc1F
→ 22% | 7%
3: Cc1ccc(NC(=O)C2CC2)cc1NC(=O)C1(C)CC1(Cl)Cl (stereo not given)
→ 13% | 11%
2: COc1ccc(COC(=O)C2CCN(S(=O)(=O)c3c(Cl)cccc3Cl)CC2)cc1F
→ -3% | -13%
1: CCOc1ccc(NC(C)(CC)c2nnnn2-c2c(C)cccc2C)cc1 (stereo not given)
→ 1% | 74%[activator]

Going on with the list.
Values run as follows: 2A firefly | StopGo RLuc
11: COc1ccc(-c2nc(SC(CC(=O)NCc3ccco3)c3ccccc3)n[nH]2)cc1 (stereo not given)
→ -25% | 22%
12: CCc1ccc(NC(=O)CCS(=O)(=O)c2ccc3c(c2)n(C)c(=O)c(=O)n3C)cc1
→ 0% | -10%
13: O=C(COc1cc(F)ccc1[N+](=O)[O-])Nc1ccc2c(c1)CCC2
→ 45%[activator] | 5%[1.06 µM]
14: CSc1ncc(Cl)c(C(=O)Nc2c(C(=O)Nc3cccc(Cl)c3)oc3ccccc23)n1
→ -12% | -17%
15: COC(=O)CNC(=O)c1ccc(COC(C)=O)cc1
→ 8% | -14%
16: O=C(CSc1nc(-c2ccco2)nc2ccccc12)NCCc1ccccc1
→ 12% | 1%
17: CCCN(CC(=O)N(C)C)C(=O)c1cc(-c2ccco2)nc2ccccc12
→ -3% | -3%
18: O=C(c1cnc2cc(-c3ccccc3)nn2c1)c1cc([N+](=O)[O-])ccc1O
→ -5% | -4%
19: Cc1ccc(S(=O)(=O)c2cn(CC(=O)Nc3ccc(F)c(Cl)c3)c3nc(C)ccc3c2=O)cc1
→ 6% | 13%
20: CCCC(C)N(C)CC(=O)N1CCN(c2oc(C)nc2C#N)CC1 (stereo not given)
→ -7% | -7%
21: Cc1ccsc1/C=C(\C#N)c1nc(-c2ccc3ccccc3c2)cs1
→ 22% | 1%
22: COc1ccccc1CNC(=O)c1csc(NC2CC2)n1
→ 30% | 1%
23: O=C(CSc1nc2ccccc2c(=O)n1CCCN1CCOCC1)c1ccc2c(c1)CCCC2
→ ? | ?
24: CCOC(=O)c1c(C)[nH]c(C)c1S(=O)(=O)NCC(=O)NCc1ccccc1Cl
→ -20% | 63%[activator]
25: O=C(NCc1ccc2c(c1)CCN2C(=O)c1ccccc1)Nc1cc(F)ccc1F
→ ? | 8.9µM*
26: CCCCN(C)C(=O)C1CCN(CC(C)c2ccccc2)CC1 (stereo not given)
→ -7% | -9%
27: Cc1nn2c(=O)cc(COC(=O)C(c3ccccc3)c3ccccc3)nc2s1
→ -8% | -12%
28: O=C(c1cc2cc([N+](=O)[O-])ccc2oc1=O)N(Cc1ccccc1)c1ccccc1
→ -9% | 39%[activator]
29: CNC(=O)CN(C)c1nc(C(F)(F)F)nc2ccccc12
→ 1% | 6%
30: Cc1ccc(F)cc1NC(=O)Cn1c(C)cc(C)c(C#N)c1=O
→ 2% | 10%
31: COc1ccc(C(=O)Nc2oc3ccccc3c(=O)c2-c2ccc(F)cc2)cc1
→ 0% | 16%
32: COC(=O)c1cccc(NC(=O)C(NC(=O)c2ccccc2C)C(C)C)c1 (stereo not given)
→ -5% | 20%
33: CC1=C(C(=O)Nc2ccc(C)cc2C)C(c2ccccc2)n2nc(SCC(=O)c3ccc(C)cc3)nc2N1 (stereo not given)
→ -3% | 3%
34: Cc1ccsc1/C=C1\Oc2cc(OC(=O)c3cccs3)ccc2C1=O
→ 0% | 14%
35: Cc1ccc2c(C)c(CCC(=O)Nc3cc(F)cc(F)c3)c(=O)oc2c1
→ 8% | 7%
36: CCOC(C)C(=O)NCCc1cccs1 (stereo not given)
→ 32%[activator] | 45%[activator]
37: CCCNC(=O)C(=O)NCC(c1ccc2c(c1)OCO2)N1CCOCC1 (stereo not given)
→ -22% | -14%
38: Cc1ccccc1Cn1nnc2c(=O)[nH]c(C3CCN(C(=O)c4ccc(F)cc4)CC3)nc21
→ 2% | 0%
39: O=C(N/N=C/c1cccs1)c1cc(-c2cccs2)nc2ccccc12
→ 20% | 19%
40: O=C(c1ccccc1F)N1c2ncnn2C2(CCCCC2)[C@@H]2CCCC[C@@H]21
→ -6% | 21%
41: CCc1ccc2oc(C(=O)NCC(c3ccc(C)o3)N3CCCCC3)cc(=O)c2c1 (stereo not given)
→ -25% | -20%
42: S=C(NCc1ccc(Cl)cc1)Nc1cccc(Cl)c1
→ 11% | 127%[activator]
43: COc1cccc(-n2c(=O)c3cc(OC)c(OC)cc3n(CC(=O)Nc3ccccc3)c2=O)c1
→ 5% | -6%
44: C=C(C)Cn1c(SCCc2ccccc2)nc2c1c(=O)n(C)c(=O)n2C
→ 4% | -2%
45: CN(C)CCCNC(=O)/C=N/O
→ 4% | -4%
46: Cc1cc(C)c(NC(=O)c2nn(C)c(=O)c3ccccc23)c(Cl)c1
→ 26% | 12%
47: O=C(Cn1ncc2c3ccccc3n(Cc3ccccc3F)c2c1=O)NCc1ccccc1Cl
→ 21% | -11%
48: CC(C)Nc1nc(-c2ccc(Br)cc2)cs1
→ 122%[activator] | -24%
49: CCOc1ccc(/C=C/C(=O)c2ccc(Br)cc2)cc1OC
→ 11% | 7%
50: Fc1cccc(NC(=S)NC2CC2)c1
→ 14% | 6%
51: O=C(CCc1c(-c2ccc(F)cc2)[nH]c2ccccc12)NC1CC1
→ 0% | 35%[activator]
52: CC(Cc1ccc2c(c1)OCO2)NO (stereo not given)
→ -1%[27 µM] | -8%[129 µM]
53: COc1ccccc1Oc1c(C)oc2cc(OCC(=O)Nc3cccc(O)c3)ccc2c1=O
→ 10% | 7%
54: CC(C)n1c(=N)c(C(=O)NC2CCCCC2)cc2c(=O)n3ccccc3nc21
→ -22% | -11%
55: Cc1ccc(NC(=O)C2CCN(S(=O)(=O)c3c(C)noc3C)CC2)cc1C
→ 8% | 0%
56: CC(=O)c1cccc(NC(=O)c2ccc3c(=O)n(-c4cccc(Cl)c4)cnc3c2)c1
→ 15% | -1%
57: Fc1ccc(CNc2nc(-c3ccccc3)cc(C(F)(F)F)n2)cc1
→ 6% | 5%
58: Cc1cc2cc(NS(=O)(=O)c3cccs3)ccc2[nH]1
→ 80%[activator] | 0%
59: Cc1ccc(C(C)C)c(OCC(=O)Nc2ccc(-c3nc4ncccc4o3)cc2C)c1
→ -12% | -9%
60: O=C(Cn1cc(SCc2ccc(F)cc2)c2ccccc21)N1CCCC1
→ 84%[activator] | 49%[activator]

The list continues.
Values run as follows: 2A firefly | StopGo RLuc
61: Cc1ccc2c(=O)c(C(=O)c3ccc(Cl)cc3)cn(CC(=O)Nc3ccc4c(c3)OCCO4)c2n1
→ -11% | -15%
62: Cc1ccc(CNC(=O)c2ccc3nc(N4CCCCC4)sc3c2)cc1
→ 33%[activator] | 7%
63: O=C1CC(c2ccccc2OCc2ccc(F)cc2)c2cn[nH]c2N1 (stereo not given)
→ -29% | -21%
64: Cc1ccc(C2=NC(c3ccccc3)=Nc3ccc(Cl)cc3N2)cc1
→ 90%[activator] | 1%
65: Cc1ccc(-n2ncc3c(N4CCCCCC4)ncnc32)cc1Cl
→ ? | -10%
66: CCc1cccc(C)c1Nc1c(-c2ccccc2O)nc2cnccn12
→ 0% | 2%
67: Cc1ccc2nc(CSc3nnc4c(Cl)cc(C(F)(F)F)cn34)cn2c1
→ 0% | -3%
68: CCOC(=O)c1c(NC(=O)c2nc3nc(C)cc(C(F)F)n3n2)sc2c1CCC(CC)C2 (stereo not given)
→ -4% | 4%
69: COC(=O)c1sccc1NC(=O)CCC(=O)O
→ 6% | -3%
70: Cc1c(-c2ccccc2)c(=O)oc2cc(OS(=O)(=O)c3ccc(Br)cc3)ccc12
→ 5% | 7%

Sorted by formula weight (low to high): some entries from above.
Values run as follows: 2A firefly | StopGo RLuc
13: O=C(COc1cc(F)ccc1[N+](=O)[O-])Nc1ccc2c(c1)CCC2
→ 45%[activator] | 5%[1.06 µM]
65: Cc1ccc(-n2ncc3c(N4CCCCCC4)ncnc32)cc1Cl
→ ? | -10%
40: O=C(c1ccccc1F)N1c2ncnn2C2(CCCCC2)[C@@H]2CCCC[C@@H]21
→ -6% | 21%
56: CC(=O)c1cccc(NC(=O)c2ccc3c(=O)n(-c4cccc(Cl)c4)cnc3c2)c1
→ 15% | -1%
47: O=C(Cn1ncc2c3ccccc3n(Cc3ccccc3F)c2c1=O)NCc1ccccc1Cl
→ 21% | -11%

(next part)
Values run as follows: 2A firefly | StopGo RLuc
71: C/C(=N/NC(=O)C1CCC(C(C)(C)C)CC1)C1CC2CCC1C2 (stereo not given)
→ 0% | 0%
72: O=C(CCSCc1ccccc1Cl)NCc1ccc(F)cc1Cl
→ 8% | 38%[activator]
73: CNc1nc2c(c(=O)[nH]c(=O)n2C)n1CCOc1ccccc1
→ 52%[activator] | 29%
74: COc1cccc(C2=CC(c3ccccc3F)n3c(nc4ccccc43)N2)c1 (stereo not given)
→ 66%[activator] | -2%
75: CCOc1ccc(CCNC(=O)NCc2noc3ccc(C)cc23)cc1
→ -11% | 4%
76: COc1ccccc1CN1CCc2ccccc2C1
→ 15% | -6%
77: CCOC(=O)c1ccc(NC(=O)c2csc3c2CCCCC3)cc1
→ 121%[activator] | -18%
78: CCSc1nn(CC(=O)Nc2cccc(Cl)c2)c(N)c1S(=O)(=O)c1ccc(OC)cc1
→ ? | 101%[activator]
79: CCc1ccc(C(=O)NCC(O)c2ccccc2)cc1 (stereo not given)
→ 0% | 32%
80: Cc1ccc(NC(=O)C(=O)NCC(c2cccnc2)N2CCN(C)CC2)cc1 (stereo not given)
→ -13% | -13%
81: COc1cccc(C(=O)C(Cl)C(=O)c2cccc(OC)c2)c1
→ 104%[activator] | 52%[activator]
82: CCOCCCNC(=O)C1CCOCC1
→ -1% | 0%
83: CCOC(=O)N1CCN(C(=O)CN(c2cccc(F)c2)S(C)(=O)=O)CC1
→ 2% | -3%
84: COc1ccccc1N1CCN(CC(=O)Nc2nnc(C)s2)CC1
→ 33%[activator] | 15%
85: COc1cc(-c2nnn(CC(=O)Nc3ccc(OC(F)(F)F)cc3)n2)cc(OC)c1OC
→ -11% | 28%
86: CCc1ccc(OCC(=O)Nc2c(C(=O)c3ccc(Br)cc3)oc3ccccc23)cc1
→ -1% | 0%
87: O=S(=O)(c1ccc(Br)cc1)c1nnn2c1nc(NC1CCCCCC1)c1sccc12
→ -25% | -3%
88: Cc1ccc(C(=O)Nc2nnc(S(=O)(=O)N(C)Cc3ccco3)s2)cc1
→ 113%[activator] | 9%
89: Cc1ccc(CC(=O)Nc2ccc3c(c2)N(C)C(=O)c2ccccc2S3)cc1
→ 45%[activator] | 124%[activator]
90: CCOC(=O)N1CCN(C(=O)c2ccc3c(c2)N(Cc2ccccc2F)C(=O)c2ccccc2S3=O)CC1 (stereo not given)
→ -12% | -5%
91: O=c1cc(CSc2ccccc2)[nH]c2ccc(F)cc12
→ ? | ?
92: Cc1cc(CNC(=O)c2ccc(CN3CCCCC3)cc2)ccc1F
→ -21% | -17%
93: CCOc1cc(C2C3=C(CC(C)(C)CC3=O)OC3=C2C(=O)CC(C)(C)C3)ccc1OC(=O)CC
→ -8% | 21%
94: CCONC(=O)c1cccc(NC(C)=O)c1
→ -2% | 15%
95: CC(C)(C)c1ccc(-c2nc(SCC(=O)Nc3ccc(Cl)cc3)[nH]c(=O)c2C#N)cc1
→ -22% | -1%
96: CCOc1ccc(Nc2oc(/C=C/c3cccc(OC)c3)nc2C#N)cc1
→ 21% | -6%
97: CC1=CCC(c2cnc(-c3ccccc3)c(C)c2)NC1c1ccccc1 (stereo not given)
→ 111%[activator] | -18%
98: CC(C)C(O)C(C#N)CN1CCCC1 (stereo not given)
→ 5% | 6%
99: Cn1c(=O)c2c(nc(NCc3ccc4c(c3)OCO4)n2Cc2ccc(Cl)cc2Cl)n(C)c1=O
→ -2% | 2%
100: O=C1NC2(CCN(S(=O)(=O)c3ccccc3)CC2)Nc2ccccc21
→ -19% | -19%
101: Cn1c(SCc2nc(N)nc(Nc3ccc(F)cc3)n2)nnc1C1CC1
→ 14% | -8%

Some of the compounds tested, so the mix of outcomes need not match the whole.
